# Screens from PubChem BioAssay.
# RE007 growth inh: less growth of the S. pombe RE007 Vpr strain; S. pombe RE007 Vpr strain, BacTiter-Glo ATP luminescence, 24 h; control for the full effect not named in the record; Potency, µM (titrated, usually from 92.2 µM), for the others: at the top dose activity change, negative = less growth; 0.21% of 360,000 active; AID 651644; active = well fitted falling curve with a large enough effect; inconclusive = small, poorly fitted or top-dose-only effect; inactive = no such curve, though single readings can be large or run the other way;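 also: % is scaled to controls: 0 for no effect and ±100 for the full control effect; nearly all actives have a fitted effect of over 50% in size; the assay follows cell death caused by Vpr and the record does not say whether a fall means rescue or toxicity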
#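 Fission yeast RE007 carrying one integrated HIV-1 vpr copy, seeded at OD 0.01 in PMG+AL medium with 23 nL pinned compound. Grown 24 h at 30 degrees; viability read by BacTiter-Glo luminescence after 5 min.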
# StopGo reporter: FMDV 2A StopGo reporter, luciferase signal; human cells with a luciferase reporter of 2A StopGo recoding; control for the full effect not named in the record; Potency, µM (doses to about 57.9 µM), inactives show top-dose signal change, negative = less light; 1.2% of 410,000 active; active = well fitted falling curve with a large enough effect; inconclusive = small, poorly fitted or top-dose-only effect; inactive = no such curve, though single readings can be large or run the other way; tested in HEK293T cells; also: % is scaled to controls: 0 for no effect and ±100 for the full control effect; nearly all actives have a fitted effect of over 45% in size; luciferase light after 4 h
# LASV entry inh: inhibitors of Lassa virus binding or cell entry | 1.2% of 300,000 active | Potency, µM (highest dose often 37.9 µM), for the others: at the highest dose activity change, negative = inhibition, hits mostly inhibitors | Lassa virus pseudotype entry inhibition, cell reporter; control for the full effect not named in the record; active means well fitted inhibition curve with a large enough effect; inconclusive means small, poorly fitted or top-dose-only effect, or effect the other way; inactive means flat fitted curve, though single readings scatter; tested in HEK293 cells; also: % is scaled to controls: 0 for no effect and ±100 for the full control effect; nearly all actives have a fitted effect of over 50% in size; luciferase read-out
# NS1 inh: influenza NS1 inhibition; Potency, µM (titrated, usually from 46.1 µM), without a hit: top-dose activity, positive = more growth; S. cerevisiae slowed by influenza A NS1, growth recovery by OD600; 0.4% of 270,000 active; active means well fitted rising curve with a large enough effect; inconclusive means small, poorly fitted or top-dose-only effect; inactive means no such curve, though single readings can be large or run the other way; also: nearly all actives have a fitted effect of over 50% in size
#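 S. cerevisiae expressing influenza A NS1, grown in glucose, washed, then diluted 1:100 into pH 6.0 -URA galactose medium with 23 nl compound. Growth recovery read as OD600; NS1-free strain serves as control.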
# Cruzain noTriton: cruzain (T. cruzi) inhibition without detergent; P25779; purified cruzain, Z-FR-AMC fluorescence, no detergent; Potency, µM, for the others: max response, negative = inhibition, usual class: inhibitors; 2.3% of 200,000 active;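 also: plate controls were enzyme without inhibitor for no effect and buffer without enzyme for full effect; nearly all actives have a fitted effect of over 40% in size; top concentration of the series not given in the record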
# Target sequence (P25779 123-467 limits assumed): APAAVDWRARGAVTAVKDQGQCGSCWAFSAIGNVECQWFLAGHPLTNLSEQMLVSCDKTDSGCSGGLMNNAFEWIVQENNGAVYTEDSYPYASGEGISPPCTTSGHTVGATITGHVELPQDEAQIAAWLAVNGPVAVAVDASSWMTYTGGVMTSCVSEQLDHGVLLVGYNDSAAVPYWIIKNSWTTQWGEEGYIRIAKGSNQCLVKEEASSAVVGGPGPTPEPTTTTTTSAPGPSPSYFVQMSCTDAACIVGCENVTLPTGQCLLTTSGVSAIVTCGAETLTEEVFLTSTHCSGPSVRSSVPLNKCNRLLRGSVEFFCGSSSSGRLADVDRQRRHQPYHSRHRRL
#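 Detergent-free condition (0.00005% Triton X-100) in acetate buffer pH 5.5 with DTT. 1.5 nM enzyme and compound were pre-mixed 15 min, then 2 uM Z-FR-AMC substrate added; reaction progress from fluorescence change between first and third reads (60 s).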
# Cruzain inh Det: cruzain (T. cruzi) inhibition with detergent | 0.43% of 200,000 active | P25779 | purified cruzain, Z-FR-AMC fluorescence, 0.01% Triton | Potency, µM, inactives show max response, negative = inhibition, most hits filed as inhibitors;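 also: plate controls were neutral wells for no effect and buffer without enzyme for full effect; nearly all actives have a fitted effect of over 40% in size; top concentration of the series not given in the record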
#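 Compounds were screened in titration against cruzain (1.5 nM) with 0.01% Triton X-100 to counter colloidal aggregation. Activity was the AMC fluorescence increase over 60 s after adding 2 uM Z-FR-AMC at pH 5.5.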
# SARS PLP yeast: inhibitors of SARS-CoV papain-like protease in yeast; S. cerevisiae expressing SARS-CoV PLpro, growth rescue; control for the full effect not named in the record; Potency, µM (titrated, usually from 32.9 µM), for the others: at the highest dose activity, positive = growth rescue; 0.19% of 330,000 active; active means well fitted rising curve with a large enough effect; inconclusive means small, poorly fitted or top-dose-only effect; inactive means no such curve, though single readings can be large or run the other way; also: 0% is about no effect; nearly all actives have a fitted effect of over 55% in size; growth read by luminescence after 48 h
# Marburg entry inh: blocks Marburg virus binding to or entry into cells. Marburg virus pseudotyped entry inhibition, cell reporter; control for the full effect not named in the record; about a third of the inactives were read at about 46 µM. Potency, µM (doses to about 37.8 µM), for the others: at the highest dose activity change, negative = inhibition, actives largely listed as inhibitors. 1.8% of 300,000 active; active = well fitted inhibition curve with a large enough effect; inconclusive = small, poorly fitted or top-dose-only effect, or effect the other way; inactive = flat fitted curve, though single readings scatter; tested in HEK293 cells; about a fifth of its hits are not listed in these tables; also: % is scaled to controls: 0 for no effect and ±100 for the full control effect; luciferase read-out
# Starred values were filed as active, the others as inactive; ? = inconclusive; · = no result given; & = joins results of further samples; [ ] = another dose, or the depositor's remark. Unless noted, calls follow the shape of the dose curve; as a rule, active = well fitted curve in the direction sought with a large enough effect; inconclusive = small, poorly fitted or top-dose-only effect, or another doubt; inactive = no such curve, though single readings can be large; an effect the other way counts as inactive or inconclusive. Potency is read from the fitted curve at half-maximal effect.
SMILES,RE007 growth inh,StopGo reporter,LASV entry inh,NS1 inh,Cruzain noTriton,Cruzain inh Det,SARS PLP yeast,Marburg entry inh
COc1ccc(NC(=O)C(C)N2c3cccc4cccc(c34)S2(=O)=O)cc1OC (stereo not drawn),5.6%,·,-3.2%,6.1%,?,-7.0%,14.5%,?
CC1=C(C#N)C(c2ccc(O)cc2)C2=C(CCCC2=O)N1 (stereo not drawn),-3.0%,-19.3%,-4.5%[46.1 µM],1.9%,·,·,2.3%,12.6%
O=C(COc1ccc2ccc(=O)oc2c1)NC1CCCC1,6.4%,-14.8%,·,3.4%,·,·,5.4%,·
CCCCc1nn2c(=O)cc(COC(=O)c3ccc(NC(=O)c4cccs4)cc3)nc2s1,·,2.7%,0.1%[46.1 µM],·,9.5%,2.8%,·,·
Cc1cc(NC(=O)CCC(=O)N(c2ccc(F)cc2)C2(C(=O)NC3CCCCC3)CCCC2)no1,-8.5%,-29.3%,-22.8%,-6.6%,?,-3.1%,?,11.2µM*
C/C(=N/N=C1/NC(=O)CC(C(=O)O)S1)c1ccccc1 (stereo not drawn),-1.2%,-9.6%,-1.2%,10.5%,2.3%,-3.9%,11.4%,?
CC(C)OC(=O)c1c2nc3ccccc3nc2n2c1[nH]c(=O)c1ccccc12,·,·,·,-2.6%,?,-1.0%,-2.5%,-7.6%
CCOC(=O)c1ccccc1NC(=O)Cn1c(=O)n(Cc2nc(C)no2)c(=O)c2ccccc21,·,-18.9%,27.9%[46.1 µM],·,10.8%,-6.4%,·,·
O=C(C1=C[C@H](C2CCCCC2)C[C@H](OCc2ccc(CO)cc2)O1)N1CCN(Cc2ccc3c(c2)OCO3)CC1,7.6%,-14.6%,·,-32.4%,·,·,-0.6%,·
COc1ccccc1NC(=O)c1cnc(Nc2ccccc2OC)c2ccccc12,-3.0%,12.6%,?,4.8%,?,-10.4%,-0.9%,?
O=C(O)CCC(=O)NNC(=O)CCC1CCCCC1,27.7%,-10.7%,0.4%,-0.4%,-2.2%,-1.6%,-3.1%,4.3%
CC(=O)c1ccc(N=C2SCCCN2C(=O)C2CCCC2)cc1,13.9%,3.2%,-2.1%[46.1 µM],·,·,·,-0.7%,0.3%[46.1 µM]
NC(=O)COc1c(-c2ccccc2)oc2ccccc2c1=O,2.3%,·,-3.4%,-9.4%,-5.8%,-3.9%,2.4%,-2.2%
CC1(C)CC(=O)C(C2=NC(C)(C)Cc3ccccc32)=C(O)C1,3.0%,-5.2%,4.3%,8.4%,0.7%,-0.5%,-3.6%,12.1%&12.1%
COc1cc2nc(COc3ccc(C#N)cc3)n(CC#N)c(=O)c2cc1OC,10.1%,-27.2%,0.2%,-49.4%,5.8%,-5.5%,-2.6%,3.7%
CN(C)c1cccc(C(=O)NC2CCCCCC2)c1,-25.2%,64.7%[activator],?,-5.6%,-12.0%,-1.7%,-11.7%,?
CC1CCCN(C(=O)C2CCN(Cc3ccc4c(c3)OCO4)CC2)C1 (stereo not drawn),11.5%,-7.8%,21.2%,-9.4%,·,·,-0.7%,-20.4%[46.1 µM]
CC1(C)CC(NCc2ccc3c(c2)OCO3)CCO1 (stereo not drawn),5.8%,3.9%,17.6%,5.9%,-6.3%,3.5%,1.6%,8.8%[46.1 µM]
C=CCn1c(C)c(C(C)=O)c(SC)nc1=S,-16.1%,-9.3%,26.2%,4.9%,-6.1%,-4.0%,3.1%,23.1%
COc1ccc(OCC(=O)O/N=C(\N)c2ccc(OC)c(OC)c2)cc1,-27.3%,-21.7%,?,-3.7%,-1.7%,-4.3%,-12.1%,-1.0%
CN(C)C(CNC(=O)c1ccc(S(=O)(=O)Nc2ccccc2F)cc1)c1ccccc1 (stereo not drawn),4.6%,-18.3%,-2.2%,3.4%,·,·,0.1%,1.0%
COC(=O)c1cccc(-c2ccc(/C=N/N3C(=O)C4C5C=CC(C6CC56)C4C3=O)o2)c1 (stereo not drawn),-5.7%,-14.3%,2.3%,0.6%,·,·,-0.5%,2.3%[46.1 µM]
O=C(NCc1ccccc1)c1cc(=O)c2ccccc2o1,-2.0%,-15.8%,-5.0%,0.5%,·,·,-0.6%,7.4%
CCCCC(=O)NC(c1cccs1)c1cc(Cl)c2cccnc2c1O (stereo not drawn),-9.4%,-15.7%,·,-53.3%,·,·,7.8%,·
Cc1cccc(NC(=O)CCSc2nncn2C)c1,3.7%,20.8%,-15.0%,7.2%,3.8%,-0.8%,-14.5%,-0.4%
COC(=O)C1=C(N)Oc2cc(C)n(CCN3CCOCC3)c(=O)c2C1c1cccnc1 (stereo not drawn),-27.1%,-8.6%,-0.3%,8.0%,-7.1%,-0.8%,-4.9%,18.1%[46.1 µM]
COc1cccc(C(O)C2OC(=O)c3ccccc32)c1OC (stereo not drawn),-21.8%,-23.3%,-0.2%,·,·,·,·,6.9%
COc1ccccc1N1CCN(Cc2cn[nH]c2-c2ccc(F)cc2)CC1,13.7%,?,0.5%,0.3%,·,·,0.2%,-19.1%
CC(=O)C(C)Oc1ccc2c3c(c(=O)oc2c1)CCCCC3 (stereo not drawn),-23.7%,15.5%,19.8%,-19.0%,?,-25.0%,25.5%,12.0%
Cc1cccc(NC(=O)c2c(Br)sc3c2CCCC3)c1,·,-6.4%,22.3%[46.1 µM],·,8.6%,-5.5%,·,·
Cc1ccc(C)c(N2CCN(C(=O)c3ccc4c(c3)N(Cc3ccc(F)cc3)C(=O)c3ccccc3S4=O)CC2)c1 (stereo not drawn),·,-5.4%,8.6%[46.1 µM],·,-18.1%,-0.8%,·,1.5%[46.1 µM]
COCCCN(CC(=O)O)S(=O)(=O)c1ccccc1,2.3%,-16.4%,9.3%[46.1 µM],6.5%,·,·,2.1%,-23.7%[46.1 µM]
O=c1cccc2n1CC1CC2CN(c2nc(N3CCCCC3)nc(N3CCCCC3)n2)C1 (stereo not drawn),5.3%,-15.6%,-0.1%[46.1 µM],·,·,·,4.1%,-3.3%[46.1 µM]
CC1Oc2ccccc2N(CC(=O)NC2CCCC2)C1=O (stereo not drawn),6.5%,-5.1%,-0.3%,8.6%,·,·,3.6%,0.6%[46.1 µM]
CC(=O)N1CCc2c(sc3c2c(=O)n(-c2ccc(C)cc2)c(=O)n3CC(=O)Nc2ccccc2)C1,·,29.9%,·,·,?,-6.1%,·,?
C=CCOc1ccc(C=Nc2ccc(C)c(Cl)c2)c(O)c1,-4.7%,-11.8%,-3.7%,4.8%,8.5%,-0.7%,0.6%,14.1%
CN1CCN(c2ccc(Cl)cc2NC(=O)/C=C/c2cccc(F)c2)CC1,-19.6%,-0.3%,-15.1%[46.1 µM],-4.1%,·,·,-0.8%,5.01µM*
COC(=O)c1cc(/C=C/c2ccccc2)on1,-17.3%,13.3%,6.7%,-41.7%,3.0%,3.8%,-10.4%,-1.6%
CCOc1ccc(C(=O)Nc2ccccc2C(=O)OCc2cc(=O)n3nc(C4CC4)sc3n2)cc1,·,1.0%,10.8%[46.1 µM],·,-11.1%,0.3%,·,·
O=C(NCC(c1cccnc1)N1CCN(c2ccccc2)CC1)C1CCCCC1 (stereo not drawn),-3.4%,·,-16.8%,3.0%&-8.7%,-2.8%,2.2%,-3.9%,-3.5%&-23.6%
O=C(N/N=C/c1c[nH]c2ccccc12)c1ccc([N+](=O)[O-])cc1Cl,2.6%,4.6%,·,-1.6%,·,·,1.2%,·
N=c1n(CCO)c2ccccc2n1CCOc1ccc(Cl)cc1Cl,7.2%,28.2µM*,·,-8.2%,-11.0%,-7.8%,-3.3%,1.5%
Cn1c(=O)cc(OCCCC(=O)N2CCC3(CC2)OCCO3)c2ccccc21,1.2%,21.7%,3.1%,4.2%,3.5%,5.4%,0.8%,12.3%
COC(=O)[C@@H]1C[C@@H]2CC[C@@H](O)C[C@@H]2N1Cc1ccc(C(F)(F)F)cc1,9.7%,-12.4%,·,-4.3%,1.7%,-2.1%,-1.9%,·
CN(c1ccccc1C(=O)Nc1ccc(S(=O)(=O)N2CCCCC2)cc1)S(C)(=O)=O,-7.4%,2.4%,0.1%,-1.9%,-4.6%,6.3%,·,49.4%
CCc1cccc(C)c1N=Cc1c(O)c2ccccc2oc1=O,-0.7%,-10.1%,?,-38.5%,·,·,-11.8%,-15.1%
COC(=O)C(CC(C(=O)OC)C(=O)OC)C(=O)OC,2.7%,-17.1%,-0.4%,9.7%,14.7%,3.5%,0.2%,-1.4%
Cc1c(CCC(=O)N[C@@H](C)C(=O)O)c(=O)oc2c(C)c3oc4c(c3cc12)CCCC4,-5.0%,-7.0%,·,9.0%,·,·,-0.3%,·
CCOc1cc(N2CCOCC2)c(OCC)cc1NC(=O)c1ccc(S(=O)(=O)N(C)C)cc1,22.3%,-6.5%,·,-3.5%,·,·,3.8%,·
Cc1ccccc1OCCCC(=O)Nc1ccc(Br)cc1,-25.8%,-2.1%,-17.3%,0.5%,-9.3%,-14.1%,-3.6%,-22.1%
O=c1c2ccccc2[nH]c2ccc(O)cc12,-4.4%,-7.8%,-12.2%,1.4%,·,·,-15.2%,15.1%[46.1 µM]
Cc1ccccc1OCCSc1nc2ccc(NC(=O)c3cccs3)cc2s1,·,?,9.6%[46.1 µM],·,-28.8%,-1.6%,·,-9.5%[46.1 µM]
O=C(CCN1C(=O)c2ccccc2S1(=O)=O)Nc1ccc(C(=O)O)cc1,6.3%,-15.8%,·,3.3%,·,·,0.2%,·
CC1CC(C)CN(C(=O)C2CCN(S(=O)(=O)c3c(Cl)cccc3Cl)CC2)C1 (stereo not drawn),30.8%,-5.2%,-2.7%,-22.1%,·,·,0.4%,6.7%
COc1ccc(N2C(=O)S[C@@H]3CS(=O)(=O)C[C@@H]32)cc1,-6.7%,-19.0%,2.9%,19.9%,-5.0%,0.2%,14.6%,?
Cc1sc2ncnc(N3CCC(C(=O)NNC(=O)c4ccc(F)cc4)CC3)c2c1C,-13.7%,20µM*,-25.3%,·,·,·,·,-16.5%

# Compounds as they come; about 4.5% have a hit in one of these screens.
